Source: PubChem BioAssay
rRNA inh HTS – reduced GFP signal of wild-type E. coli, primary screen, bacterial rRNA inhibitor project, GFP/RFP fluorescence, OD600, single point; E. coli WT GFP vs humanized-ribosome RFP mutants, 24 h; hits give low values; DMSO median 0, no signal -100; GFP signal change (wild-type ribosome), % (no concentration beside the values); hit rate 1.6% among 350,000; AID 720706, 2013;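 active = significant combined selectivity score with lowered wild-type GFP, culture density cut under 30%, mutant RFP and density less affected; inactive = any of these conditions unmet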; also: one replicate is shown; some compounds called inactive have numbers as strong as hits
rRNA inh HTS OD600 – recorded beside rRNA inh HTS, whose call it bears; OD600 change, %; measured here: OD600 growth;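 optical density of the mix in the first replicate; 0 = DMSO median and -100 = no signal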
rRNA inh HTS RFP – also measured in rRNA inh HTS; calls as there; RFP signal change, %; measured here: RFP humanized mutant strains;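 first replicate; 0 = DMSO median and -100 = no signal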
Numbers without * were called inactive.

#	structure	rRNA inh HTS OD600	rRNA inh HTS RFP	rRNA inh HTS
1	C[C@@H]1CN([C@@H](C)CO)S(=O)(=O)c2ccc(-c3cccnc3)cc2O[C@H]1CN(C)C(=O)C1CC1	-16	-2.6	-2
2	Cc1ccccc1-c1ccc2c(c1)O[C@H](CN(C)C(=O)Nc1ccc(F)cc1)[C@H](C)CN([C@@H](C)CO)S2(=O)=O	4	3.4	2
3	Cc1noc(C)c1NC(=O)N1C[C@@H](O)COC[C@@H]2O[C@@H](CC(=O)N[C@@H]3CCN(Cc4ccccc4)C3)CC[C@H]21	1	-2.9	-2
4	C[C@H](CO)N1C[C@H](C)[C@H](CN(C)C(=O)C2CCC2)Oc2cc(-c3ccncc3)ccc2S1(=O)=O	-2	1.4	-3
5	CNC[C@H]1Oc2ccc(N)cc2CC(=O)N(C)C[C@@H]1C	-1	-1.4	0
6	C[C@@H]1CN([C@@H](C)CO)C(=O)CCCn2nncc2CO[C@@H]1CN(C)Cc1cccnc1	9	-2.4	1
7	CO[C@@H]1CN(C)C(=O)c2ccc(NC(=O)c3ccccc3)cc2OC[C@H](C)N(C(=O)C2CC2)C[C@@H]1C	-5	-0.1	-2
8	C[C@H]1CN([C@@H](C)CO)C(=O)c2cc(NS(=O)(=O)c3ccc(Cl)cc3)ccc2O[C@H]1CN(C)S(C)(=O)=O	4	4.0	5
9	C[C@@H]1CN(C)C(=O)c2cccnc2O[C@@H]1CN(C)S(C)(=O)=O	3	-1.5	0
10	C[C@@H]1CN([C@@H](C)CO)C(=O)c2cc(NS(C)(=O)=O)ccc2O[C@@H](C)CCCCO[C@@H]1CN(C)CC1CCCCC1	5	-0.8	1
11	CO[C@H]1CN(C)C(=O)c2cc(NC(=O)Nc3cc(F)ccc3F)ccc2OC[C@@H](C)N(C(=O)c2ccccn2)C[C@@H]1C	1	-1.3	2
12	CO[C@H]1CN(C)C(=O)c2cc(NC(=O)c3ccccc3)ccc2OC[C@H](C)N(CC2CC2)C[C@@H]1C	-6	-5.1	1
13	CC(C)NC(=O)N(C)C[C@@H]1OCCCC[C@@H](C)Oc2ccc(NC(=O)c3ccncc3)cc2C(=O)N([C@H](C)CO)C[C@H]1C	-5	1.6	0
14	O=C(NC[C@H]1N[C@H](CO)[C@@H]1c1ccc(-c2cncnc2)cc1)C1CCCCC1	9	-0.9	4
15	C/C=C/c1ccc([C@H]2[C@H](CO)N[C@H]2CN(C(=O)C2CCCC2)C(C)C)cc1	7	0.1	4
16	C/C=C/c1ccc([C@H]2[C@@H](CNC(C)=O)N(C(=O)Cc3cccnc3)[C@H]2CO)cc1	2	-1.4	2
17	CC(=O)N(C)C[C@H]1Oc2ccc(N(C)C)cc2CC(=O)N(C)C[C@@H]1C	3	1.0	1
18	COc1cccc(-c2ccc([C@@H]3[C@@H](CO)N4CCCCN(Cc5cncnc5)C[C@H]34)cc2)c1	0	-0.4	0
19	CCC(=O)Nc1ccc2c(c1)OC[C@H](C)N(CC1CCCCC1)C[C@@H](C)[C@@H](OC)CN(C)C2=O	-2	-0.4	0
20	COc1ccc(C[C@H]2CCn3nncc3COC[C@H](c3ccccc3)NC2=O)cc1	10	-2.5	7
21	COc1ccc(NC(=O)Nc2ccc3c(c2)C(=O)N(C)C[C@@H](OC)[C@H](C)CN[C@@H](C)CO3)cc1	0	1.1	-1
22	CC(C)CC#Cc1ccc([C@H]2[C@@H](CO)N3C(=O)CN(C(=O)NC(C)C)C[C@H]23)cc1	-4	-3.2	0
23	CCNC(=O)C[C@H]1CC[C@H]2[C@@H](COc3ccc(NC(=O)NC(C)C)cc3C(=O)N2C)O1	-3	-2.2	1
24	CO[C@H]1CN(C)C(=O)c2cc(NC(=O)Nc3cccc(Cl)c3)ccc2OC[C@H](C)N(C(=O)Nc2c(C)noc2C)C[C@@H]1C	-4	2.9	1
25	CN(C)CC(=O)Nc1ccc2c(c1)C(=O)N(C)[C@H]1CC[C@H](CC(=O)NCc3ccccc3)O[C@@H]1CO2	-1	1.8	1
26	C[C@@H]1CN([C@H](C)CO)C(=O)CCCn2nncc2CO[C@@H]1CN(C)Cc1ccc2c(c1)OCCO2	-3	-1.3	2
27	COc1cccc(C#Cc2ccc3c(c2)[C@H]2[C@H](CCN2C(=O)c2ccccc2F)[C@@H](CO)N3)c1	-1	2.6	-5
28	COCC#Cc1ccc2c(c1)O[C@@H](CN(C)CC1CCCCC1)[C@H](C)CN([C@@H](C)CO)S2(=O)=O	-14	-1.9	3
29	C[C@@H]1CN([C@@H](C)CO)C(=O)CCCn2nncc2CO[C@@H]1CN(C)Cc1ccc(Oc2ccccc2)cc1	-17	5.3	-7
30	C/C=C/c1ccc([C@@H]2[C@@H](CO)N(Cc3ccccn3)[C@H]2CNC(=O)CC)cc1	-3	-1.5	-2
31	CO[C@@H]1CN(C)C(=O)c2cc(NC(=O)Nc3ccc(Cl)cc3)ccc2OC[C@H](C)N(C)C[C@H]1C	-2	2.7	-5
32	CC(C)NC(=O)Nc1ccc2c(c1)C(=O)N(C)C[C@H](C)[C@@H](CN(C)S(C)(=O)=O)O2	3	-2.3	0
33	CN1C(=O)c2cc(NC(=O)C3CCOCC3)ccc2OC[C@@H]2O[C@H](CC(=O)O)CC[C@@H]21	-3	-0.4	0
34	CC(C)[C@@H]1CC=CC[C@@H](C)Oc2ccccc2C(=O)N(C)[C@H](Cc2ccccc2)C(=O)N1 (mixture of isomers)	-73	2.3	-39
35	O=C(CN1CCOCC1)N1CC[C@@H]2[C@H]1c1cc(-c3ccc(F)cc3)ccc1N[C@@H]2CO	-1	-1.8	8
36	O=C(C[C@@H]1CC[C@H](NC(=O)CC2CC2)[C@H](CO)O1)NCc1ccccc1	9	-2.0	1
37	CC(C)[C@H]1C(=O)N[C@@H](c2ccc3c(c2)OCO3)CC=CC[C@@H](C)Oc2ccccc2C(=O)N1C (mixture of isomers)	-8	-1.4	-2
38	C[C@@H]1CN([C@H](C)CO)C(=O)c2cccc(NC(=O)c3cnccn3)c2O[C@@H]1CN(C)S(=O)(=O)c1ccc(Cl)cc1	-10	-0.6	-11
39	N#C[C@@H]1[C@H](c2ccc(-c3cccc(F)c3)cc2)[C@H](CO)N1C(=O)NC1CCCCC1	-34	-3.0	0
40	COCC(=O)N(C[C@H]1N[C@@H](CO)[C@@H]1c1ccc(C2=CCCC2)cc1)C(C)C	-10	6.7	-1

A section of the results above, for reference:
#	structure	rRNA inh HTS OD600	rRNA inh HTS RFP	rRNA inh HTS
33	CN1C(=O)c2cc(NC(=O)C3CCOCC3)ccc2OC[C@@H]2O[C@H](CC(=O)O)CC[C@@H]21	-3	-0.4	0
34	CC(C)[C@@H]1CC=CC[C@@H](C)Oc2ccccc2C(=O)N(C)[C@H](Cc2ccccc2)C(=O)N1 (mixture of isomers)	-73	2.3	-39
35	O=C(CN1CCOCC1)N1CC[C@@H]2[C@H]1c1cc(-c3ccc(F)cc3)ccc1N[C@@H]2CO	-1	-1.8	8
36	O=C(C[C@@H]1CC[C@H](NC(=O)CC2CC2)[C@H](CO)O1)NCc1ccccc1	9	-2.0	1
37	CC(C)[C@H]1C(=O)N[C@@H](c2ccc3c(c2)OCO3)CC=CC[C@@H](C)Oc2ccccc2C(=O)N1C (mixture of isomers)	-8	-1.4	-2

Going on with the list.
#	structure	rRNA inh HTS OD600	rRNA inh HTS RFP	rRNA inh HTS
41	C[C@@H]1CN(C)C(=O)Cc2cc([N+](=O)[O-])ccc2O[C@@H]1CN(C)C(=O)OC(C)(C)C	-2	-0.4	-1
42	C[C@@H]1CN([C@@H](C)CO)S(=O)(=O)c2ccc(-c3ccc(F)cc3)cc2O[C@@H]1CN(C)C(=O)C1CCC1	-46	14	-20
43	COc1ccc2c3c(n(C)c2c1)[C@@H](CO)NCC31CN(S(=O)(=O)c2cccc(F)c2)C1	-23	1.3	-4
44	CC(C)CC#Cc1ccc2c(c1)O[C@H](CN(C)Cc1ccccc1)[C@H](C)CN([C@@H](C)CO)S2(=O)=O	-12	2.8	-11
45	C[C@H]1CN(C)C(=O)c2cccc(N(C)C)c2O[C@H]1CN(C)S(C)(=O)=O	11	0.5	0
46	CC(=O)Nc1cccc2c1O[C@H](CN(C)C(C)=O)[C@@H](C)CN(C)C2=O	4	-0.9	2
47	CCN1Cc2cc(C(=O)Nc3nccs3)nc(-c3cccc(C4=CCCC4)c3)c2[C@H]1CCO	3	5.6	6
48	COc1cccc(CN2CC3(C2)[C@H](c2ccccc2)[C@@H](CO)N3Cc2ccccc2OC)c1	-5	6.0	-5
49	CCCC(=O)Nc1ccc2c(c1)C(=O)N(C)[C@@H]1CC[C@H](CC(=O)NCC(F)(F)F)O[C@H]1CO2	-1	-1.3	2
50	Cc1ccc(S(=O)(=O)Nc2ccc3c(c2)C(=O)N([C@H](C)CO)C[C@@H](C)[C@@H](CN(C)C)OCCCC[C@@H](C)O3)cc1	-2	0.2	-1

The list goes on; it opens with the 3 that closed the last part.
#	structure	rRNA inh HTS OD600	rRNA inh HTS RFP	rRNA inh HTS
48	COc1cccc(CN2CC3(C2)[C@H](c2ccccc2)[C@@H](CO)N3Cc2ccccc2OC)c1	-5	6.0	-5
49	CCCC(=O)Nc1ccc2c(c1)C(=O)N(C)[C@@H]1CC[C@H](CC(=O)NCC(F)(F)F)O[C@H]1CO2	-1	-1.3	2
50	Cc1ccc(S(=O)(=O)Nc2ccc3c(c2)C(=O)N([C@H](C)CO)C[C@@H](C)[C@@H](CN(C)C)OCCCC[C@@H](C)O3)cc1	-2	0.2	-1
51	COc1ccc(NC(=O)N(C)C[C@H]2Oc3ccc(NS(=O)(=O)c4ccc(C)cc4)cc3C(=O)N([C@@H](C)CO)C[C@@H]2C)cc1	0	-1.1	3
52	COc1ccc2c3c(n(C)c2c1)[C@@H](CO)N(CC1CC1)CC31CCN(C(=O)c2cccnc2)CC1	2	-4.0	2
53	CNC[C@H]1Oc2ccccc2C(=O)N(C)C[C@H]1C	-3	-2.1	-1
54	Fc1ccc(CN2C3CN(CC(F)(F)F)CC2C3c2ccc(Br)cc2)cc1 (configuration not stated)	-17	-3.1	0
55	CC[C@@H]1C/C=C\C[C@H](c2ccc(OC)cc2OC)NC(=O)[C@H](C)CC(=O)N1	3	-1.1	3
56	C[C@H]1CN([C@@H](C)CO)C(=O)CCCn2cc(nn2)CO[C@H]1CN(C)C(=O)CCC(F)(F)F	0	-1.0	0
57	COc1ccc(S(=O)(=O)Nc2cccc3c2O[C@@H](CN(C)C(=O)Nc2cccc4ccccc24)[C@@H](C)CN([C@H](C)CO)C3=O)cc1	-2	-0.3	5
58	COc1ccc(S(=O)(=O)N(C)C[C@@H]2Oc3c(NC(=O)Nc4cccc5ccccc45)cccc3C(=O)N([C@@H](C)CO)C[C@H]2C)cc1	3	-0.6	2
59	C[C@H]1CC=CC[C@@H](c2ccccc2)NC(=O)[C@H](Cc2ccccc2)N(C)C(=O)c2ccccc2O1 (mixture of isomers)	-3	1.1	-7
60	C[C@@H]1CN([C@H](C)CO)C(=O)c2cc(NS(=O)(=O)c3cccs3)ccc2O[C@@H]1CN(C)S(=O)(=O)c1cccs1	-6	2.9	-2

Taken from above:
Under rRNA inh HTS OD600, #54 is listed with -17
Under rRNA inh HTS, #56 is listed with 0

Carrying on.
#	structure	rRNA inh HTS OD600	rRNA inh HTS RFP	rRNA inh HTS
61	C[C@H]1CN(C)C(=O)c2cccnc2O[C@H]1CN(C)C	6	-0.8	1
62	CO[C@@H]1CN(C)C(=O)c2cc(NC(=O)c3cccc(Oc4ccccc4)c3)ccc2OC[C@H](C)NC[C@@H]1C	-1	15	-3
63	CC=Cc1ccc2n(c1=O)C[C@@H]1[C@@H](CO)[C@H](C(=O)NCC3CCCCC3)N(C(=O)CC)[C@H]21 (mixture of isomers)	-7	-4.9	1
64	CO[C@@H]1CN(C)C(=O)c2ccc(NC(C)=O)cc2OC[C@H](C)N(C(=O)c2ccccc2F)C[C@@H]1C	2	1.7	2
65	CS(=O)(=O)N(CC1CCC1)C[C@H]1N[C@@H](CO)[C@H]1c1ccccc1	5	0.8	1
66	O=C1N[C@@H](Cc2ccccc2)COCc2cn(nn2)CC[C@@H]1Cc1ccc(-c2ccccc2)cc1	-13	4.6	-3
67	C[C@H]1CN([C@@H](C)CO)C(=O)c2cccc(NC(=O)C3CCCCC3)c2O[C@@H]1CN(C)Cc1ccc2c(c1)OCO2	-9	1.7	-8
68	CCC(=O)N1[C@@H]2CN(C(=O)Nc3ccccc3Cl)c3ccccc3[C@@H]2[C@@H]1CO	7	-0.6	-1
69	Cc1ccc(S(=O)(=O)Nc2ccc3c(c2)C(=O)N([C@H](C)CO)C[C@@H](C)[C@H](CN(C)C(=O)Nc2ccccc2)OCCCC[C@H](C)O3)cc1	0	-1.2	-1
70	C/C=C/c1ccc([C@H]2[C@H](CO)N[C@H]2CN(C)S(=O)(=O)c2ccccc2)cc1	-29	16	-1
71	FC(F)(F)CN1CC2C(c3ccc(Br)cc3)C(C1)N2CC(F)(F)F (configuration not stated)	-13	-3.4	-2
72	CO[C@H](C(=O)N(C)C[C@H]1OCc2ccccc2-c2ccccc2C(=O)N([C@H](C)CO)C[C@@H]1C)c1ccccc1	4	-0.9	-1
73	COc1cccc(C(=O)N2C[C@H]3[C@@H](c4ccccc42)[C@@H](CO)N3Cc2ccccc2Cl)c1	-26	0.4	-32
74	C[C@@H]1CN([C@H](C)CO)C(=O)c2cc(-c3cccc(F)c3)cnc2O[C@@H]1CN(C)C(=O)C1CC1	13	-0.2	6
75	CC(C)NC(=O)Nc1ccc2c(c1)C(=O)N([C@@H](C)CO)C[C@@H](C)[C@@H](CN(C)CC1CC1)OCCCC[C@@H](C)O2	6	-5.0	3
76	C[C@@H]1CN([C@@H](C)CO)C(=O)c2cc(NS(=O)(=O)c3cn(C)cn3)ccc2O[C@@H]1CN(C)C(=O)Nc1ccc(F)cc1	4	-0.8	5
77	Cc1ccc(-c2ccc3c(c2)O[C@@H](CN(C)C(=O)C2CCCCC2)[C@@H](C)CN([C@H](C)CO)S3(=O)=O)cc1	4	2.6	0

These rows are one share of the data, so the mix of outcomes need not match the whole.
